ClpP mod – qHTS Assay for Activators of ClpP. ATP-dependent Clp protease proteolytic subunit (Bacillus subtilis (strain 168)), P80244. AID 651965, 2013. purified B. subtilis ClpP, FRET peptide cleavage, 20 min. Potency, µM (titrated, usually from 57.5 µM), inactives show at the highest dose activity change, negative = active. actives 1.9% (n = 340,000); active = well fitted falling curve with a large enough effect; inconclusive = small, poorly fitted or top-dose-only effect; inactive = no such curve, though single readings can be large or run the other way; also: the source files actives as falling curves though it sought activators and does not explain the sign; nearly all actives have a fitted effect of over 65% in size; many hits overshoot -100%
Target sequence (P80244 whole entry, looked up): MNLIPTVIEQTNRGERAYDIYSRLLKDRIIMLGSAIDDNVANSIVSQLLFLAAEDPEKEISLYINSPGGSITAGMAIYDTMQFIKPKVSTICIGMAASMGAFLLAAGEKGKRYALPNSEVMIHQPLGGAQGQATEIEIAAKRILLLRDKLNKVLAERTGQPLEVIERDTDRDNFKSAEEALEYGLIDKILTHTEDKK
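Purified B. subtilis ClpP, 10 microg/mL final in Tris/HCl pH8 with KCl, BSA, glycerol and Tween-20, cleaved an Abz/nitrotyrosine-quenched decapeptide. Fluorescence (ex 320, em 430) was read at 0 and 20 min at room temperature. Delta was normalized to 5.8 microM ADEP and DMSO/no-enzyme controls.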
The depositor's hits bear a star; ? = inconclusive. Potency is read from the fitted curve at half-maximal effect. Only part of the results is shown; the hit share may differ from the screen's.

smiles | ClpP mod
Cn1ccc2c(-c3ccc(C(F)(F)F)cc3)cc3c(c21)C1CCC3O1 (stereo not drawn) | 5.2%
COC(=O)[C@@]12C[C@@H](CC(=O)NCc3ccc(OC)c(OC)c3)C(=O)N(Cc3ccc4c(c3)OCO4)C1=CCC(C)(C)C2 | 2.8%
CN(C)c1ccc(/C=C/c2ccnc3ccccc23)cc1C=O | -0.4%
CCCNC(=O)C1(C)CCCN(Cc2csc3ccccc23)C1 (stereo not drawn) | 1.0%
O=C(C[C@H]1CC[C@@H]2[C@H](COC[C@@H](O)CN2Cc2cccc(F)c2)O1)NCC1CCCCC1 | 0.4%
CN(CCO)c1ccc2c(c1)OC[C@H](Cc1ccccc1)NS2(=O)=O | -3.9%
Cc1ccc(N2CCN(C(C(=O)Nc3c(C)cccc3C)c3cc4ccccc4o3)CC2)cc1 (stereo not drawn) | -1.2%
C(=C\c1cccs1)/c1ccccn1 | -2.0%
CCCN(C)C1CN(Cc2cn(Cc3ccc(Cl)cc3)nn2)S(=O)(=O)C1 (stereo not drawn) | -0.8%
COc1ccc(NC(=O)C2Cc3c(-c4ccco4)ccnc3O2)cc1OC (stereo not drawn) | -0.2%
c1ccc2cnccc2c1 | -1.7%
O=C(Nc1ccccc1)c1nc(S(=O)(=O)Cc2ccccc2F)ncc1Cl | ?
Cc1ccc(Cl)cc1-c1cc(C(=O)NCc2ccc(C(F)(F)F)cc2)[nH]n1 | -4.1%
COCCCNC(=O)C[C@@H]1C[C@@]2(C(=O)OC)CCCCC=C2N(Cc2ccc3c(c2)OCO3)C1=O | -0.6%
CC1OC(C(C)(C)C)Cc2[nH][nH]c(=O)c21 (stereo not drawn) | 1.0%
Cc1ccccc1-c1csc(C(O)(c2ccccc2)C(F)(F)F)n1 (stereo not drawn) | -1.7%
O=C(Nc1c(-c2ccc3c(c2)OCO3)[nH][nH]c1=O)c1cccc(C(F)(F)F)c1 | 3.0%
CC(C)(C)n1nnnc1C(c1ccccc1)N1CCCN(Cc2ccc(F)cc2)CC1 (stereo not drawn) | -2.5%
CC(=O)NCCNC(=O)C1Cc2c(-c3ccccc3)ccnc2O1 (stereo not drawn) | -5.7%
CCCCn1nnnc1C(c1ccc(OC)cc1)N1CCN(C/C=C/c2ccccc2)CC1 (stereo not drawn) | -2.3%
CCCCOc1ccc(C(=O)NCCN2CCC(n3c(=O)[nH]c4ccccc43)CC2)cc1 | 1.7%
CC(C)Oc1cccc(C(=O)Nc2nnc([C@@H]3C[C@H](O)[C@@H](CO)O3)s2)c1 | -8.4%
NS(=O)(=O)c1ccc(CCNc2ccn3nc(-c4ccc(OCCN5CCOCC5)cc4)cc3n2)cc1 | 5.1%
CCCCn1nnnc1C(c1ccccc1OC(F)(F)F)N1CCN(C/C=C/c2ccccc2)CC1 (stereo not drawn) | -3.9%
CC(=O)N1CCC(C(=O)N2c3ccccc3N=C(c3ccc(C(F)(F)F)cc3)C2C(=O)NC2CCCC2)CC1 (stereo not drawn) | -5.7%
C[C@@H](NC(=O)[C@@H]1CCCN1C(=O)[C@@H]1CCCN1C(=O)c1cccs1)c1ccccc1 | -0.9%
COc1ccc(N=c2nc(-c3ccccc3)n(-c3ccc(C)cc3)s2)cc1 | -1.2%
COc1ccccc1-c1cc(NC=O)c2ncc(-c3cccc(C(F)(F)F)c3)n2c1 | ?
CCS(=O)(=O)N1CCN(C(=O)c2ccc3nc(C)c(N(C)C(=O)CCc4ccccc4)n3c2)CC1 | -2.0%
CNc1c(Br)cc(C=O)cc1Br | -4.3%
CC1Sc2ccccc2N(Cc2ccccc2)C1=O (stereo not drawn) | -1.1%
COc1cccc(C(NC(C)=O)c2nc(-c3cccc(NC(C)=O)c3)cs2)c1 (stereo not drawn) | 0.6%
COc1ccc(OC)c(CN2C(=O)c3ccccc3C2c2nnnn2-c2c(C)cccc2C)c1 (stereo not drawn) | -0.5%
COc1c2ccccc2nn1C(C)C | -18.8%
O=[N+]([O-])c1ccc2c(c1)C=C/C2=C\c1ccccc1 | 0.3%
Cc1ccc(C(=O)Nc2nnc([C@H]3C[C@H](O)[C@@H](CO)O3)s2)cc1 | -1.5%
O=C(Nc1cccc(C(F)(F)F)c1)c1csc([C@@H]2C[C@H](O)[C@@H](CO)O2)n1 | 1.3%
CC1(C(=O)NCCc2c[nH]c3ccccc23)CCN1Cc1csc2ccccc12 (stereo not drawn) | 0.0%
OCC[N+]1(CCc2ccccc2)CCOCC1 | 1.0%
O=C(NCc1ccncc1)c1csc([C@@H]2C[C@H](O)[C@@H](CO)O2)n1 | -21.9%
COc1cc(NC(=O)C2(C)CCCN2C)cc(OC)c1OC (stereo not drawn) | 1.2%
CCOC(=O)N1CCN(C(=O)C[C@@H]2C[C@@]3(C(=O)OC)CC(C)(C)CC=C3N(Cc3ccccc3)C2=O)CC1 | 1.1%
COc1cccc(C(O)c2nc(-c3cccc(C#N)c3)cs2)c1 (stereo not drawn) | -2.6%
COCCNC(=O)C1(C)CCCN(Cc2cc(-c3ccccc3)n(C)n2)C1 (stereo not drawn) | 0.0%
Nc1ncc(-c2ccc(F)cc2)nc1N1CCN(CCO)CC1 | 4.9%
CC1(C(=O)NS(=O)(=O)c2ccc(Cl)s2)CCN1C(=O)CCc1ccccc1 (stereo not drawn) | -0.4%
CC1=C(C(=O)N2CCOCC2)CC(CC(=O)NC2CC2)C(=O)N1Cc1ccc(F)cc1 (stereo not drawn) | 0.1%
OCC[C@@H]1C[C@H](O)[C@@H](O)[C@@]2(OCCc3cc(Cl)ccc32)O1 | 0.7%
Cc1ccccc1-c1csc(C(O)c2cccnc2)n1 (stereo not drawn) | 0.7%
Cc1ccc(-c2nc3ccc(C)cn3c2Cc2ccccn2)cc1 | 4.3%
COc1cc(Cl)ccc1OC1(C)CCN(Cc2ccc3ccccc3c2)C1 (stereo not drawn) | -5.0%
O=C(NCc1ccccc1Cl)c1csc([C@H]2C[C@H](O)[C@@H](CO)O2)n1 | -1.5%
CC(C)NC(=O)N1Cc2cc(C(=O)NC3CCCCC3)nc(-c3cccc(-c4cccnc4)c3)c2[C@@H]1CCO | -1.1%
COc1cccc(Nc2nc(C(C)N)cs2)n1 (stereo not drawn) | -4.7%
CC(C)C[C@@H](CN1CCC[C@H]1CN1C(=O)C(=O)NC[C@@H]1Cc1ccc(O)cc1)N1C[C@H](Cc2ccccc2)N(CC2CCCCC2)C(=O)C1=O | -3.6%
O=C(Nc1ccc(Cl)cc1)C1Cc2c(-c3ccc(Cl)cc3)ccnc2O1 (stereo not drawn) | -19.6%
CCO[C@H]1C[C@@H](c2ccc(CC)cc2)N(S(=O)(=O)c2ccc(C)cc2)C2CC(c3ccc(CC)cc3)N(S(=O)(=O)c3ccc(C)cc3)CC21 (stereo partly drawn) | 2.0%
Cc1ccc(NC(=O)C2(C)CCN2Cc2cccc3c2OCO3)cc1O (stereo not drawn) | -3.0%
O=C(Nc1ccccc1)c1cc(C2COCCN2C(=O)C2CC2)on1 (stereo not drawn) | 2.4%
COc1cc(OC)nc(C(NC(=O)C2CCN(Cc3c[nH]c4ccccc34)CC2)c2ccc(Cl)cc2)n1 (stereo not drawn) | -2.3%

Among those listed so far, these contain a tert-butyl group:
smiles | ClpP mod
CC1OC(C(C)(C)C)Cc2[nH][nH]c(=O)c21 (stereo not drawn) | 1.0%
CC(C)(C)n1nnnc1C(c1ccccc1)N1CCCN(Cc2ccc(F)cc2)CC1 (stereo not drawn) | -2.5%

(further entries)
smiles | ClpP mod
COc1ccc(-c2cc3c(c4c2ccn4C)C2CCC3O2)cn1 (stereo not drawn) | 5.2%
CCCCn1nnnc1C1(C)CCC(=O)N1Cc1cccnc1 (stereo not drawn) | 0.3%
CNC(=O)c1cc(Oc2ccc(NC(=O)c3[nH]c(-c4ccccc4)c4c3C(=O)N(C)C4=O)cc2)ccn1 | -6.3%
CC(C)c1ccc(NC(=O)Nc2nc(C(N)COCc3ccccc3)cs2)cc1 (stereo not drawn) | -1.0%
CC(C)CN1CCC(C(=O)NC(c2ccc(F)cc2)c2ccc3ccccc3n2)CC1 (stereo not drawn) | -9.5%
CC1(C(=O)Nc2ccc3c(c2)OCCO3)CCN1C(=O)c1ccco1 (stereo not drawn) | 0.7%
CC(C)CN(CC(C)C)c1ccc(/C=C/c2ccnc3ccccc23)cc1 | -0.1%
CCCNC(=O)C1(C)CCN(C(=O)c2ccc3sccc3c2)C1 (stereo not drawn) | 4.1%
CCCCN1CC[C@H]2C=CC[C@@H](C(=O)NC3CCCCC3)[C@H]2C1=O | 2.8%
COc1cc(C(=O)NC2CC2)cc(OC)c1OC | -4.3%
O=S(=O)(c1ccc2c(c1)CCCC2)N1CCN(c2nc(-c3ccccc3)nc3ccccc23)CC1 | -7.4%
CCCN1CNc2c(c(=O)[nH]c(=S)n2CCc2ccc(C)cc2)C1 | -1.4%
CN(C)C(=O)c1cc2c(c(-c3cccc(-c4ccccc4F)c3)n1)[C@@H](CCO)N(S(C)(=O)=O)C2 | 0.6%
CN(C)CCCNc1nc2cc(-c3cccc(C(F)(F)F)c3)sc2c(=O)n1C | -19.1%
NC(c1csc(Nc2ncccn2)n1)C1CCCCC1 (stereo not drawn) | -3.6%
COc1cc2ccccc2cc1C(=O)OCC(=O)Nc1ccc(Br)cc1 | 3.9%
O=C(OC1CC2CC1[C@H]1CCCCN1C2=O)N1CCCCC1 (stereo partly drawn) | -3.3%
Cc1cccc(C(O)c2ncc(-c3ccccc3F)[nH]2)c1C (stereo not drawn) | -1.6%
Cc1ccc2[nH]c(=O)c(CN(Cc3cccs3)Cc3nnnn3Cc3ccco3)cc2c1 | 3.7%
OC(CN1CCCC1)c1ccccc1 (stereo not drawn) | -1.2%
COCCCNc1ccn2nc(-c3cccc(OCc4ccccc4)c3)cc2n1 | 4.6%
CCOC(=O)[C@]12CCC=C1N(Cc1cccc3ccccc13)C(=O)[C@H](CC(=O)N1CCN(C(=O)C3CC3)CC1)C2 | 2.1%
Cn1c(Oc2cccnc2CN2CCCC2)nc2cc(-c3cccc(C(F)(F)F)c3)sc2c1=O | -12.0%
CC1(C(=O)NS(=O)(=O)Cc2ccccc2)CCN1C(=O)C1(c2ccc(Cl)cc2)CCC1 (stereo not drawn) | 1.5%
COc1cc(-c2cnc3c(NC=O)cc(-c4cccc(C(=O)NCCN(C)C)c4)cn23)cc(OC)c1OC | -2.9%
CC1(C(=O)NS(=O)(=O)c2ccc(Cl)s2)CCN1C(=O)C1CCCCC1 (stereo not drawn) | -1.7%
CC(=O)N(O)c1ccc(C=Cc2ccccc2)cc1 | ?
CCc1nc2c(OCCn3cccc3)cccn2c1N(C)C(=O)CC(C)C | -2.2%
Cc1cc2ccccc2c[n+]1C | 4.3%
C=C[C@@H](c1ccccc1)[C@](C)(O)C(=O)O | -0.6%
CCOC(=O)C1(C)CCCN(C(=O)COc2ccccc2)C1 (stereo not drawn) | 0.6%
Cc1c(C#N)c(NC(=O)COC(=O)c2cc(Cl)c3c(c2)OCCCO3)n(Cc2ccco2)c1C | 0.6%
O=C1CCCN1C1CCN(Cc2ccccc2)S(=O)(=O)N1 (stereo not drawn) | -5.3%
COc1cccc(C(C)(O)c2nc(-c3cccc(C(F)(F)F)c3)cs2)c1 (stereo not drawn) | -1.8%
CC1(Oc2ccc(Cl)cc2)CCN(Cc2ccc(-c3ccccn3)cc2)C1 (stereo not drawn) | -0.2%
CC(=O)Nc1cncc(-c2ccccc2CO)n1 | -10.4%
CC(C)[C@H]1COCCS(=O)(=O)N1Cc1cccc([N+](=O)[O-])c1 | 0.7%
N#CN=c1snc(-c2ccccc2Cl)n1-c1ccccc1Cl | -1.8%
CCN(CC)c1ccc(-c2nnc(SCC(=O)NCc3ccco3)n2C)cc1 | -1.4%
CC1(C(=O)Nc2nccs2)CCN1C(=O)CC(c1ccccc1)c1ccccc1 (stereo not drawn) | 1.4%
CC1(C(=O)NS(=O)(=O)c2cccc(F)c2)CCN1C(=O)c1ccco1 (stereo not drawn) | 1.1%
COc1ccc(NC(=O)C(c2ccncc2)n2c(=O)c(-c3ccccc3)nc3ccccc32)cc1 (stereo not drawn) | 4.7%
COc1ccc(CN2C(=O)C(CC(=O)NCc3cccc4ccccc34)CC(C(=O)N(C(C)C)C(C)C)=C2C)cc1 (stereo not drawn) | 0.3%
CC1(C(=O)NS(=O)(=O)c2cccc(C#N)c2)CCN1C(=O)Cc1ccccc1Cl (stereo not drawn) | 0.6%
O=S1(=O)N[C@@H](Cc2ccccc2)COc2cccc(N3CCSCC3)c21 | 1.6%
O=C(NCc1ccc(F)c(F)c1)C1Cc2c(-c3ccc4c(c3)OCO4)ccnc2O1 (stereo not drawn) | 4.0%
O=C1C(=Cc2ccc(Cl)cc2)CCc2ccccc21 | 2.0%

Quoted at random: 6 compounds from above.
smiles | ClpP mod
O=S1(=O)N[C@@H](Cc2ccccc2)COc2cccc(N3CCSCC3)c21 | 1.6%
CC(=O)Nc1cncc(-c2ccccc2CO)n1 | -10.4%
O=C1CCCN1C1CCN(Cc2ccccc2)S(=O)(=O)N1 (stereo not drawn) | -5.3%
CC1(C(=O)Nc2nccs2)CCN1C(=O)CC(c1ccccc1)c1ccccc1 (stereo not drawn) | 1.4%
COc1cccc(C(C)(O)c2nc(-c3cccc(C(F)(F)F)c3)cs2)c1 (stereo not drawn) | -1.8%
COc1ccc(CN2C(=O)C(CC(=O)NCc3cccc4ccccc34)CC(C(=O)N(C(C)C)C(C)C)=C2C)cc1 (stereo not drawn) | 0.3%

Screening results from PubChem BioAssay.
